Assay outcomes as filed in PubChem BioAssay.
VACV Venus inh: vaccinia inhibition (Venus reporter); Vaccinia virus Venus reporter expression, fluorescence; Potency, µM (doses to about 36.5 µM), without a hit: top-dose activity change, negative = inhibition, most hits filed as inhibitors; 330,000 tested, 0.46% active; AID 720580; active means well fitted inhibition curve with a large enough effect; inconclusive means small, poorly fitted or top-dose-only effect; inactive means no such curve, though single readings can be large or run the other way; tested in A549 cells; note: nearly all actives have a fitted effect of over 30% in size; inactives centre near -10
VACV mCherry inh: inhibitors of vaccinia virus infection (mCherry reporter signal). Vaccinia virus mCherry reporter infection, fluorescence; about a quarter of the inactives have no number. Potency, µM (top dose mostly 36.5 µM), without a hit: at the highest dose activity change, negative = inhibition, usual class: inhibitors. 310,000 tested, 0.63% active; active = well fitted inhibition curve with a large enough effect; inconclusive = small, poorly fitted or top-dose-only effect; inactive = no such curve, though single readings can be large or run the other way; tested in A549 cells; note: nearly all actives have a fitted effect of over 35% in size; inactives centre near -10
Starred values were filed as active, the others as inactive; i = inactive; ? = inconclusive; . = not tested or not shown; & = joins results of further samples; [ ] = another dose, or the depositor's remark. % is set by controls: 0 for no effect and ±100 for the full control effect; potency is the fitted concentration of half-maximal effect.

SMILES | VACV Venus inh | VACV mCherry inh
Cn1c(=O)oc2cc(S(=O)(=O)NC(Cc3ccccc3)C(=O)NCc3ccc(F)cc3)ccc21 (stereo not drawn) | 1.3% | 1.6%
CCn1c(O)c(C=NCCN2CCOCC2)sc1=S | -3.6% | .
COc1ccc(NC(=O)CSc2nc(=O)n(CCN3CCOCC3)c3c2CCC3)cc1 | -6.3% | -19.4%
COc1ccc(NC(=O)Cn2c(=O)cnc3ccccc32)cc1S(=O)(=O)N1CCCCC1 | -14.8% | -11.5%
COc1ccc(/C=N/NS(C)(=O)=O)c(OC)c1 | -9.6% | -11.8%
Cc1ccc(C)c(NC(=O)CN(C)C(=O)CSCc2c(C)noc2C)c1 | -15.1% | i
COc1ccccc1N1CCN(C(=O)c2cccc(N3C(=O)C4C5C=CC(C5)C4C3=O)c2)CC1 (stereo not drawn) | -6.5% | i
COc1cccc(C(=O)OCn2nnc3ccccc3c2=O)c1OC | -2.8% | 3.5%
O=C(N/N=C/c1cccnc1)c1ccc([N+](=O)[O-])cc1 | -3.6% | -10.8%
Cc1ccccc1N(CC(=O)NCc1ccco1)C(=O)CCC(=O)Nc1nccs1 | 6.4% | i
CCOC(=O)c1[nH]c(=O)[nH]c1CNc1ccccc1C#N | -11.0% | i
O=C(Nc1ccc(OC(F)F)c(Cl)c1)[C@@H]1CCCN1C(=O)c1cccs1 | -7.1% | -10.8%
Cc1ccc(CNc2ncccc2-c2nc(-c3ccc(Cl)cc3)no2)cc1 | 7.1% | -6.2%
COc1ccc(NC(=O)COC(=O)COc2ccc(Br)cc2)cc1 | 0.1% | i
Fc1cccc(CSc2ccc(-c3ccco3)nn2)c1 | -11.8% | i
CCNc1ccc([N+](=O)[O-])cc1 | 0.8% | -12.0%
CC1CCCC(C)N1CCCNC(=O)c1ccc2nc(N3CCCCC3)sc2c1 (stereo not drawn) | -5.7% | i
COc1ccc([C@H]2CC(=O)C=C(/C=C/c3ccc(C(F)(F)F)cc3)C2)cc1 | ? | -17.2%
COc1ccc(N(C)S(=O)(=O)c2c(C)noc2C)c(OC)c1 | 1.6% | 6.5%
Cc1ccccc1NC(=O)CN1C(=O)NC2(CCCCCCC2)C1=O | -23.2% | -3.5%
C=Cc1ccc(Cn2c(C)c(C(=O)NCc3cccc([N+](=O)[O-])c3)sc2=O)cc1 | -0.2% | i
CCOc1ccc2c(c1)c1nnc(SCC(=O)N3CCCCC3C)nc1n2C (stereo not drawn) | ? | ?
COc1cccc(C(C(=O)NC2CCCCC2)N(C(=O)c2ccccn2)c2cccnc2)c1 (stereo not drawn) | 2.3% | 3.8%
C[C@]12c3[nH]c4cc(-c5ccco5)ccc4c3CCN1C(=O)[C@@H](CC(=O)NCCC1=CCCCC1)C[C@@H]2C(=O)N1CCOCC1 | -19.9% | ?
Cn1nnnc1SCCNCc1cc(Cl)ccc1OCc1ccccc1 | -22.9% | -29.1%

Filtered by structure: the entries above with an NH in an aromatic ring
SMILES | VACV Venus inh | VACV mCherry inh
CCOC(=O)c1[nH]c(=O)[nH]c1CNc1ccccc1C#N | -11.0% | i
C[C@]12c3[nH]c4cc(-c5ccco5)ccc4c3CCN1C(=O)[C@@H](CC(=O)NCCC1=CCCCC1)C[C@@H]2C(=O)N1CCOCC1 | -19.9% | ?

(continued)
SMILES | VACV Venus inh | VACV mCherry inh
CCOc1ccc(C(=O)Nc2nnc(S(=O)(=O)Nc3ccccc3)s2)cc1 | -2.7% | -10.3%
Cc1ccc(-n2nc(C)c3c(C)cc(=O)n(CC(=O)N4CCCc5ccccc54)c32)cc1 | 0.7% | -1.0%
CCOc1ccc(S(=O)(=O)NCCC(=O)OCC(=O)NC(=O)c2cccn2C)cc1 | -13.5% | i
COc1ccccc1-c1noc(-c2ccccc2C(=O)NCc2ccco2)n1 | -5.7% | -14.5%
N#Cc1nc(-c2ccc(F)cc2)oc1N1CCCC1 | -15.9% | -19.8%
CC(=O)c1ccc(NC(=O)/C(Cl)=C/c2ccccc2)cc1 | -4.8% | -3.8%
Cc1ccc(C(=O)NCCNc2ncc(C(F)(F)F)cc2Cl)cc1[N+](=O)[O-] | -1.6% | ?
CC1=C(C(=O)OCC2CCCO2)C(c2ccc(Cl)c(Cl)c2)NC(=O)N1 (stereo not drawn) | -18.7% | -22.6%
Cc1ccc(F)cc1CNC(=O)C1CCC(=O)N(CCCN2CCCC2=O)C1 (stereo not drawn) | -2.2% | -9.7%
CCN(CC)CC(=O)c1c(N)n(Cc2ccccc2)c(=O)n(C)c1=O | -3.6% | 4.7%
CCCC(=O)NC(=S)Nc1cccc(NC(=O)c2ccc(Cl)cc2Cl)c1 | -14.0% | -17.7%
O=C(COC(=O)COc1ccccc1Cl)Nc1ccccc1OC(F)F | -0.6% | -12.9%
COC(=O)c1ccccc1NC(=O)Cn1nnc(-c2ccc(OC)cc2)n1 | -19.2%&-27.6% | -24.3%&-15.7%
CN1/C(=C\C(=O)COC(=O)Cn2nnc(-c3ccccc3)n2)C(C)(C)c2ccccc21 | 74.4%[activator] | 6.9%
Cc1cc(C)c2c(N)c(-c3nc4ccccc4[nH]3)sc2n1 | -10.7% | -14.1%[1.46 µM]
CCCC1=Nc2cc(C(=O)N3CCN(c4ccccn4)CC3)ccc2Sc2ccc(C)cc21 | -13.5% | -5.9%
O=C(NCC1CCCO1)C12CN(Cc3ccccc3)CC1C(c1cccc([N+](=O)[O-])c1)=NO2 (stereo not drawn) | -3.6% | -6.3%
NC1=NC(=Nc2ccc(Cl)cc2)c2ccccc21 | -9.7% | -11.5%
Cc1cccc(N2O[C@H]3C=CC2CCCC3)n1 | -20.5% | -10.4%
CC(C)c1ccc(Nc2nc(CC(=O)O)cs2)cc1 | 0.0% | -11.3%
Cc1nnsc1C(=O)N1CCC(CO)(Cc2ccccc2Cl)CC1 | -11.7% | -10.6%
NCc1cc(=O)[nH]o1 | -5.0%&-5.8% | -12.7%
c1ccc(CCc2nn3c(Cn4nnc5ccccc54)nnc3s2)cc1 | -10.1% | -21.5%
C=C(Br)Cn1c(CC(C)C)nc2ccccc21 | -20.4% | -18.0%
COC(=O)n1c(=O)oc2ccccc21 | -31.0% | .

A different layout for some results above.
Each structure is followed by: VACV Venus inh, VACV mCherry inh
- c1ccc(CCc2nn3c(Cn4nnc5ccccc54)nnc3s2)cc1
    -10.1%, -21.5%
- C=C(Br)Cn1c(CC(C)C)nc2ccccc21
    -20.4%, -18.0%

Complete entries from above:
`Cc1cccc(N2O[C@H]3C=CC2CCCC3)n1` in the list: VACV Venus inh = -20.5%; VACV mCherry inh = -10.4%
`Cc1nnsc1C(=O)N1CCC(CO)(Cc2ccccc2Cl)CC1` in the list: VACV Venus inh = -11.7%; VACV mCherry inh = -10.6%

(continued)
SMILES | VACV Venus inh | VACV mCherry inh
O=C(COc1ccccc1[N+](=O)[O-])Nc1cc(C(=O)O)cc(C(=O)O)c1 | 8.4% | -13.2%
CCn1c(/C=C2/C(=O)N(C)c3ccccc32)nc2ccccc2c1=O | -6.5% | -9.9%
CCn1c2ccc(OC)cc2c2nc3ccccc3nc21 | -24.8% | .
CCOC(=O)C1CCCCN1S(=O)(=O)c1csc(C(N)=O)c1 (stereo not drawn) | -5.5% | -14.9%
COc1ccc(CNC(=O)c2sc(=O)n(Cc3ccccc3C)c2C)cc1 | -9.0% | 14.3%
CCOC(=O)c1c(C)oc2nc(C)nc(N3CCN(c4cccc(C(F)(F)F)c4)CC3)c12 | -25.6% | -20.9%
CS(=O)(=O)N(CC(=O)O)c1cc(Cl)cc(Cl)c1 | 1.7% | 0.4%
COc1ccc(NS(=O)(=O)c2ccc(NC(=O)c3ccc(N(C)S(C)(=O)=O)cc3)cc2)c(OC)c1 | -16.8% | ?
COc1ccc(CCNC(=O)C(=O)NCC2OCCN2S(=O)(=O)c2cccs2)cc1OC (stereo not drawn) | -13.4% | i
Cc1cccc2c(=O)[nH]c3c(-c4nc(-c5ccc(Cl)cc5)cs4)c(O)cn3c12 | -8.6% | -10.9%
FC(F)(F)c1ccc(N2CCN(c3cc(-c4ccccc4)nc4ncnn34)CC2)nc1 | -5.3% | i
COc1ccc(-c2cc3ncccc3cn2)cc1 | -1.3% | 18.6%
Nc1c(N(CCCO)C(=O)CCCN2C(=O)c3cccc4cccc(c34)C2=O)c(=O)[nH]c(=O)n1Cc1ccccc1 | -4.4% | -18.9%
Cc1cc(C)c2c(n1)sc1c(N3CCCCC3)ncnc12 | -12.1% | i
CC1CCN(C(=O)c2cc(-c3cccc(Cl)c3)on2)CC1 | 10.1% | 9.9%
O=S(=O)(c1cccc(C(F)(F)F)c1)N1CCN(C(=S)NCc2ccco2)CC1 | -21.3% | -27.4%
CCSc1sc(CC)cc1C=O | -0.4% | -3.1%
CCOc1ccc(NC(=S)NC23CN4CN(CN(C4)C2)C3)cc1 | -5.4% | -11.6%
CCOC(=O)c1oc2ccccc2c1CN1CCN(c2ccccc2)CC1 | -16.9% | -2.7%
Cc1cc(C)cc(N2C(=O)CC(n3nc(C)cc3C)C2=O)c1 (stereo not drawn) | -0.9% | -7.5%
Cc1ccc(-c2ccc(CN3C(C)C(=O)N(Cc4cn(CCC5OCCCO5)nn4)CCS3(=O)=O)cc2)cc1 (stereo not drawn) | -26.2% | i
CC(=O)Nc1ccc(NC(=O)C2Cc3c(-c4ccc(Cl)cc4)ccnc3O2)cc1 (stereo not drawn) | 1.9% | 7.2%
Cc1ccc(S(=O)(=O)N2CCOCC2)cc1C(=O)OCC(=O)Nc1ccc2[nH]c(=O)[nH]c2c1 | -14.0% | -2.6%
COc1ccccc1N1CCN(/N=C/C=C\c2ccco2)CC1 | 6.8% | .
CCOC(=O)Nc1ccc2c(c1)N(C(=O)CCN1CCN(C)CC1)c1ccccc1S2 | -38.8% | .
Continued:
SMILES | VACV Venus inh | VACV mCherry inh
CCC(=O)N(CCC(c1ccccc1)c1ccc2c(c1)OCO2)Cc1ccc(OC(C)C)cc1 (stereo not drawn) | -22.9% | -19.8%
CC(Nc1nc2ccccc2n2cnnc12)c1ccccc1 (stereo not drawn) | -3.1% | -1.9%
CCOC(=O)c1cnc(SCc2ccccc2)nc1N | -11.1% | -4.4%
O=C(CN1C(=O)C2C3C=CC(C3)C2C1=O)NCCc1ccccc1Cl (stereo not drawn) | -27.2% | ?
O=C(Cn1cnc([N+](=O)[O-])c1)Nc1ccc(Cl)cc1Cl | -12.3% | i
CCSc1nnc(CNC(=O)C23CC4CC(CC(C4)C2)C3)n1C1CCCCC1 | -10.6% | -12.2%
COC(=O)C1=C(C)OC(N)=C(C#N)C12C(=O)Nc1ccccc12 (stereo not drawn) | -2.1% | -8.4%
OCCN1CCN(c2ncnc3c2c(-c2ccccc2)cn3-c2ccc(F)cc2)CC1 | ? | ?
C[C@@H]1CN([C@H](C)CO)C(=O)c2cc(Br)cnc2O[C@@H]1CN(C)C(=O)c1ccccc1 | -9.8% | i
CSCCC(NC(=O)c1ccco1)C(=O)Nc1ccncc1 (stereo not drawn) | -12.5% | -7.9%
Cc1cccc(Oc2nc(-c3ccncc3)nc3ccccc23)c1 | 2.0%[7.34 µM] | i[7.34 µM]
Cc1ccc(C)c(S(=O)(=O)N2CCCC2CNC(=O)C(=O)NC2CCCC2)c1 (stereo not drawn) | -22.1% | -22.9%
O=C(COC(=O)COc1ccccc1[N+](=O)[O-])NCc1ccc2c(c1)OCO2 | -7.3% | -14.1%
O=c1c(Cl)c(NCCCO)cnn1-c1nc2ccccc2[nH]1 | 9.1% | -12.1%
O=C(N/N=C/c1ccncc1)C1CC1(c1ccccc1)c1ccccc1 (stereo not drawn) | -9.8% | -10.5%
COc1cc(OC)c(OC)cc1CNc1sc2c(c1C(=O)Nc1ccccc1OC)CCC2 | -5.8% | -16.6%
CCCC(C)NC(=O)c1cc(Cl)ccc1OC (stereo not drawn) | 5.7% | .
C/C(=N\Nc1nc2ccccc2s1)c1ccc(Br)s1 | -10.2% | -19.2%
CCCC(=O)Nc1cc(C(=O)NCc2ccc(OC)cc2)ccc1S(=O)(=O)c1ccc(Cl)cc1 | -8.8% | -15.5%
COC(=O)c1cc(NC(=O)c2cccnc2)ccc1N1CCOCC1 | -13.3% | i
COc1cc2c(cc1OC)C(Cc1ccccc1[N+](=O)[O-])=NCC2 | -7.1% | -25.2%
COc1cc(OC)c(NC(=O)c2csc3c2CCC(C)C3)cc1Cl (stereo not drawn) | -1.9% | i
O=C(NCC1CCCO1)c1cc2ccccc2oc1=O (stereo not drawn) | -4.1% | i
O=S(=O)(c1ccccc1F)N1CCN(CC(O)c2ccccc2)CC1 (stereo not drawn) | -15.5% | -1.0%
O=S(=O)(Nc1cccnc1Cl)c1ccc(F)cc1 | -1.9% | -11.2%
(next part)
SMILES | VACV Venus inh | VACV mCherry inh
Cc1cccc(NC(=S)NCC(c2cccnc2)N(C)C)c1 (stereo not drawn) | -11.4% | i
O=C(NCC(c1ccc(Cl)cc1)N1CCCCC1)c1ccc(F)cc1 (stereo not drawn) | -7.2% | i
O=C(O)C1CN(c2nc(Cl)ccc2[N+](=O)[O-])C1 | 1.4% | -10.2%
O=C(CC(C(=O)O)C1CCCO1)NCc1ccccc1 (stereo not drawn) | -9.9% | -4.6%
C=CC[C@@H](CC(=O)N[C@@H](CO)Cc1ccccc1)C(=O)N[C@@H](COC(=O)[C@@H](CC=C)Cc1ccc(F)cc1)Cc1c[nH]c2ccccc12 | ? | i
O=C(NCc1ccc(C(F)(F)F)cc1)c1ccc(-c2cccnc2)c2ccoc12 | -16.4% | -13.3%

The order is random, and some 0.88% of all compounds hit somewhere here.
